BmaI1: BmaI1 acyl-homoserine lactone synthase inhibition – biochemical, fluorescence intensity, with counterscreen (AID 720554); 12,000 compounds, 0.4% hits; inhibition, %; BmaI1 enzyme assay, fluorescence intensity; stronger effect = higher value; test concentration not given here; a few actives read low; strong numbers were not always called active;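 active means both replicates within 2 robust z-scores of the inhibited control and a quiet counterscreen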;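 further: 0% = uninhibited enzyme and 100% = inhibited control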
BmaI1 counterscreen: second read-out of BmaI1, no call of its own (marks repeat the call); inhibition, %; measured here: counterscreen; design of the counterscreen not given here;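 first of two replicates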
Numbers without * were called inactive. Not all compounds are listed; rates above refer to the full screens.

cpd	canonical_smiles	BmaI1	BmaI1 counterscreen
1	CC(C(=O)Nc1ccc(S(=O)(=O)N2CCCC2)cc1)N1CCN(c2ccccc2O)CC1 (configuration not stated)	67	29
2	Cc1occc1C(=O)N1CCN(S(=O)(=O)c2ccc(F)cc2)CC1	11	0
3	Cc1nn(-c2ccccc2Cl)c(Cl)c1C=Nc1ccc2[nH]c(=O)[nH]c2c1	55	32
4	O=C1CCCC1Sc1nnnn1-c1ccccc1 (configuration not stated)	-24	-4
5	O=C(CN1C(=O)NC(Cc2ccccc2)C1=O)c1ccc(S(=O)(=O)N2CCCC2)cc1 (configuration not stated)	3	-2
6	Cc1nn(C2CCS(=O)(=O)C2)c(Cl)c1/C=C1\SC(=S)NC1=O (configuration not stated)	24	7
7	CON(C)S(=O)(=O)c1cccc(C(=O)Oc2ccc(-n3cnnn3)cc2)c1	20	6
8	COc1cccc(COCC(O)CN2CCC(C(N)=O)CC2)c1 (configuration not stated)	-17	-4
9	O=C(OCC(=O)N(Cc1ccccc1)C1CCS(=O)(=O)C1)c1ccccc1C(F)(F)F (configuration not stated)	5	6
10	CCSc1nnc(-c2cccc(S(=O)(=O)N(C)C)c2)n1-c1cccc(C)c1	12	3
11	O=C(c1ccccc1)N1CCN(C(=O)c2cccc(S(=O)(=O)N3CCCC3)c2)CC1	10	13
12	OC(COCc1ccc(Cl)cc1)CN1CCCCCC1 (configuration not stated)	9	8
13	Cc1ccccc1CSCc1nc(N)nc(Nc2ccccc2C)n1	7	4
14	CCCn1c(SCC(=O)NCC23CC4CC(CC(C4)C2)C3)n[nH]c1=O	22	10
15	CCOC(=O)c1oc2ccccc2c1CSc1nnnn1-c1ccc(OC)cc1	2	6
16	CC[C@H](C)[C@H](NC(N)=O)C(=O)Nc1ccccc1	20	14
17	C=C(C)CNC(=S)N1CCSC1=Nc1ccccc1OC	5	1
18	CC1(c2ccc(Cl)cc2)NC(=O)N(CN2CCCC(C(F)(F)F)C2)C1=O (configuration not stated)	1	2
19	O=C1NC(Cc2ccccc2)(Cc2ccccc2)C(=O)N1Cc1nnc(-c2cccs2)o1	13	3
20	COc1ccc(CCN(C)C(=O)Cn2c(=O)oc3ccccc32)cc1OC	10	14
21	O=C(Nc1ccccc1)C1=NN(c2ccccc2)C(=O)CC1	21	16
22	C=CCN1C(=O)/C(=N/N=C/c2ccc(OC)c(O)c2)c2ccccc21	40	69
23	Cc1ccc2nc(Cn3nnc(-c4ccccc4)n3)cn2c1	36	11
24	Cc1ccccc1Nc1nc(N)nc(CSc2ncn[nH]2)n1	-6	-2

By substructure: the entries above containing a CF3 group (2)
cpd	canonical_smiles	BmaI1	BmaI1 counterscreen
9	O=C(OCC(=O)N(Cc1ccccc1)C1CCS(=O)(=O)C1)c1ccccc1C(F)(F)F (configuration not stated)	5	6
18	CC1(c2ccc(Cl)cc2)NC(=O)N(CN2CCCC(C(F)(F)F)C2)C1=O (configuration not stated)	1	2

Returning to the listing, starting six compounds before the break.
cpd	canonical_smiles	BmaI1	BmaI1 counterscreen
19	O=C1NC(Cc2ccccc2)(Cc2ccccc2)C(=O)N1Cc1nnc(-c2cccs2)o1	13	3
20	COc1ccc(CCN(C)C(=O)Cn2c(=O)oc3ccccc32)cc1OC	10	14
21	O=C(Nc1ccccc1)C1=NN(c2ccccc2)C(=O)CC1	21	16
22	C=CCN1C(=O)/C(=N/N=C/c2ccc(OC)c(O)c2)c2ccccc21	40	69
23	Cc1ccc2nc(Cn3nnc(-c4ccccc4)n3)cn2c1	36	11
24	Cc1ccccc1Nc1nc(N)nc(CSc2ncn[nH]2)n1	-6	-2
25	Cc1ccc(S(=O)(=O)NC(C)C(=O)OCc2cc(=O)n3ccsc3n2)cc1 (configuration not stated)	2	0
26	O=C(Nc1ccc(OC(F)(F)F)cc1)c1ccccn1	6	2
27	COc1ccccc1NC(=O)CN(Cc1ccco1)C(=O)c1cc(C2CC2)nn1-c1ccccc1	18	6
28	O=C(C1CCCCC1)N1CC(=O)N2CCc3ccccc3C2C1 (configuration not stated)	5	15
29	CCOC(=O)CCC(=O)OC1C(OC2C(C)C(OC3CC(C)(OC)C(O)C(C)O3)C(C)C(=O)OC(CC)C(C)(O)C(O)C(C)C(=O)C(C)CC2(C)O)OC(C)CC1N(C)C (configuration not stated)	8	51
30	N#Cc1ccc(COC(=O)C2CCN(c3nc4ccccc4o3)CC2)cc1	14	0
31	Cc1nn(-c2ccccc2)c2sc(C(=O)OCSc3ncccn3)cc12	35	2
32	CC1CCCN(C(=O)COC(=O)/C=C/c2ccc(C(F)(F)F)cc2)C1 (configuration not stated)	10	6
33	CCOC(=O)C1CCCN(c2c(N)n(CC)c(=O)[nH]c2=O)C1 (configuration not stated)	34	26
34	c1ccc(CSc2nnc(-c3cccs3)n2-c2ccccc2)cc1	24	10
35	O=C(CN1C(=O)C2CC=CCC2C1=O)NCCc1ccccc1 (configuration not stated)	-8	-4
36	CCc1nnc(NC(=O)c2ccc3c(c2)S(=O)(=O)N=C2CCCCCN23)s1	15	12
37	COc1cccc(CN(C)Cc2cc(=O)oc3cc(O)c(Cl)cc23)c1	29	18
38	Cn1cnnc1SCC(=O)NCc1ccccc1	-8	-10
39	c1ccc2oc(SCc3nc4ccccc4s3)nc2c1	10	6
40	COc1ccc(C)cc1CCNCc1cnn(-c2ccccc2)n1	7	0
41	CC(C)CCn1c(=O)c2ccccc2n2c(CSc3n[nH]c(N)n3)nnc12	18	16
42	Cn1c(=O)c2cnc(N3CCCCC3)nc2n(C)c1=O	9	4
43	COc1ccc(C2=NN(C(=O)CNc3ccccc3C(=O)Nc3ccccc3)C(c3ccco3)C2)cc1 (configuration not stated)	2	4
44	O=C(Cn1[nH]c(=O)c2ccccc2c1=O)NC1CCCc2ccccc21 (configuration not stated)	0	0
45	CC1(C)C2CCC1(C)C(NC(=O)c1cc(=O)[nH]c3ccccc13)C2 (configuration not stated)	8	2
46	CCc1ccc[n+](-c2[nH]c(=O)sc2/C=N/N=C(/N)[O-])c1	14	1
47	Cc1ccc(NC(=O)c2ccc3ncsc3c2)c(O)c1	59	28
48	O=c1[nH]c2ccccc2n1CN1CCC(c2nc3ccccc3s2)CC1	-1	2
49	Cn1c(-c2c(-c3ccccc3)n[nH]c2-c2cccs2)nc2ccccc21	14	12
50	Cn1nnc2c(C(N)=O)ncn2c1=O	10	25
51	CCCn1c(=O)c2ccccc2n2c(SCC(=O)N3CCN(C(=O)OCC)CC3)nnc12	-6	-6
52	OC(c1nnc(-c2ccccc2)o1)c1cn(-c2ccccc2)nc1-c1cccnc1 (configuration not stated)	13	14
53	CCOC(=O)/C=c1\s/c(=C\c2cccs2)c(=O)n1CC(N)=O	11	6
54	Cc1c(NC(=O)c2nn(C(C)C)c(=O)c3ccccc23)c(=O)n(-c2ccccc2)n1C	39	5
55	O=C(CSc1nc2c(n1-c1ccccc1)CCCC2)N1CCN(C(=O)c2cccs2)CC1	26	-4
56	O=C(COC(=O)c1ccc2c(c1)NC(=O)CS2)NCc1cccs1	19	13
57	N=C1c2ccccc2CN1c1ccc2c3c(cccc13)C(=O)N2	18	30
58	C/C(=N\NC(=O)C1CC1)c1ccc(C)cc1	20	18
59	COc1cccc(NC(=O)CN(CC(=O)Nc2cccc(OC)c2)CC2COc3ccccc3O2)c1 (configuration not stated)	6	-1
60	O=C(Cn1c(=O)[nH]n(-c2ccccc2)c1=O)N1CCc2ccccc2C1	36	27
61	CN(C)c1ccc(C(=O)NCCCN2CCCC2=O)cc1	-6	-10
62	CCOCc1c(C(=O)OCCOc2ccccc2)oc2ccccc12	7	2
63	CC(C)c1cccc(C(C)C)c1O	42	39
64	O=C1c2ccccc2C(=O)N1/N=C/c1cn(-c2ccccc2)nc1-c1cccs1	-6	-10
65	COc1ccc(O)c(C(=O)OC(C(=O)N(C)C)c2ccccc2)c1 (configuration not stated)	18	-1
66	Cc1ccc(NC(=O)OC2CCCCCCC2)cc1	2	-2
67	COc1ccc(N2CCN(c3ccccn3)CC2)cc1	53	-14
68	Cc1cc(C(=O)COC(=O)/C=C/c2ccc3c(c2)OCO3)c(C)n1C1CC1	11	-1
69	O=c1n(CCCN2CCN(c3cccc(Cl)c3)CC2)nc2ccccn12	-3	2
70	CCCCN1C(=O)/C(=C\C(=O)NC(N)=O)c2ccccc21	22	5
71	Cc1cc(C(F)(F)F)c2c(=O)n3[nH]c(C)cc3nc2n1	0	6
72	CNC(=O)COc1ccccc1C(=O)Nc1ccccc1	14	13

An excerpt of these results, with each value named.
#70 CCCCN1C(=O)/C(=C\C(=O)NC(N)=O)c2ccccc21
  BmaI1: 22
  BmaI1 counterscreen: 5

#71 Cc1cc(C(F)(F)F)c2c(=O)n3[nH]c(C)cc3nc2n1
  BmaI1: 0
  BmaI1 counterscreen: 6

Further records.
cpd	canonical_smiles	BmaI1	BmaI1 counterscreen
73	CC(NS(=O)(=O)c1ccccc1)C(=O)NCc1ccc(CN2CCCC2)cc1 (configuration not stated)	6	4
74	COc1ccc(C)cc1NC(=O)C(Sc1nnc(C2CC2)n1C)c1ccccc1 (configuration not stated)	2	2
75	Cc1cc(C(=O)CSc2nnc(Cc3ccccc3)o2)c(C)n1CCc1ccccc1	8	3
76	Cc1nn(Cc2ccccc2Cl)c2sc(C(=O)OCc3nc4ccccc4c(=O)n3CC#N)cc12	6	-2
77	O=c1[nH]ncc(N2CCCCC2)c1Cl	7	5
78	O=C(CNC(c1ccccc1)c1ccc(Cl)cc1)N1CCNC1=O (configuration not stated)	7	8
79	O=c1[nH]c(CN(CCO)Cc2nc3sccc3c(=O)[nH]2)nc2sccc12	-8	-15
80	COc1ccccc1C(=O)CSc1cccc[n+]1[O-]	57	10
81	CCOC(=O)c1c(C)[nH]c(C(=O)CN2CCCCC2)c1C	14	6
82	COc1cccc(NC(=O)C(c2ccccc2)N2CCN(S(=O)(=O)c3ccccc3)CC2)c1 (configuration not stated)	-23	-4
83	CCN(CC)S(=O)(=O)c1cccc(C(=O)NCCCN2CCOCC2)c1	14	6
84	Cc1cc(C(=O)CSc2ccc(S(=O)(=O)N3CCN(Cc4ccccc4)CC3)cn2)c(C)n1C	12	6
85	CCN(CC)C(=O)COc1ccc(/C(C)=N/NC(=O)Cc2ccccc2)cc1	9	12
86	Cc1cc(N(C)CC(=O)Nc2ccc(OC(F)(F)F)cc2)n2ncnc2n1	0	5
87	CON(C)S(=O)(=O)c1cc(C(=O)OCc2nc(-c3ccc(Cl)cc3)no2)ccc1Cl	2	-2
88	CN(C=C1C(=O)NC(=O)NC1=O)Cc1ccc(Cl)c(Cl)c1	11	9
89	COc1ccccc1NC(=O)N(c1c(N)n(Cc2ccccc2)c(=O)[nH]c1=O)C1CCCC1	-4	-1
90	NCc1ccc(S(N)(=O)=O)cc1	4	19
91	Cc1cc(NC(=O)COC(=O)c2ccccc2)no1	17	11
92	Cc1ccc2c(c1)CCCN2C(=O)C1CCCN1C(=O)OC(C)(C)C (configuration not stated)	11	5
93	COc1ccc(CC2c3cc(OC)c(OC)cc3CC[N+]2(C)CCC(=O)OCCCCCOC(=O)CC[N+]2(C)CCc3cc(OC)c(OC)cc3C2Cc2ccc(OC)c(OC)c2)cc1OC (configuration not stated)	-2	2
94	O=C(N/N=C(\Cc1ncc[nH]1)c1ccccc1)c1cccs1	18	-18
95	CC(C)CCN1C(=O)C2(NN(CCO)C(=Nc3ccccc3)S2)c2ccccc21 (configuration not stated)	76	38
96	Cc1ccc(-c2cc(NC(=O)COC(=O)C3=NNC(=O)CC3)n(-c3ccccc3)n2)cc1	3	6
97	CC(=O)Nc1ccc(NC=C(C#N)C#N)cc1	8	14
98	Cc1nnc(SCC(=O)c2c[nH]c3ccccc23)n(N)c1=O	6	6
99	COc1cn(-c2ccccc2)nc1C(=O)Nc1ccc2nc(C)sc2c1	8	-3
100	N#Cc1ccc(CCC(=O)c2cccs2)cc1	11	5
101	Cn1cnnc1Sc1ccc(Cl)cc1NC(=O)c1ccc(C#N)cc1	50	10
102	Cc1ccc(/C=C/C(=O)N(Cc2nc3ccccc3c(=O)[nH]2)CC2CCCO2)o1 (configuration not stated)	18	-3
103	O=C1[C@H](CC[C@H](O)c2ccc(F)cc2)[C@@H](c2ccc(O)cc2)N1c1ccc(F)cc1	3	0
104	CC(C)[C@H](NC(=O)c1ccco1)C(=O)N(C)Cc1c(F)cccc1Cl	12	10
105	COc1ccc(-c2nnc(SCC(=O)N3CC(=O)Nc4ccccc43)o2)cc1OC	-15	4
106	O=C(CSc1nnc(-c2ccco2)n1-c1ccccc1)NC(=O)c1ccccc1	20	4
107	Cc1cc(NC(=O)C(C)SCC(=O)O)no1 (configuration not stated)	-10	-8
108	O=C(CCCc1nc2ccccc2c(=O)[nH]1)Nc1ccccc1N1CCOCC1	14	2
109	O=C(CSc1ncn[nH]1)c1cccc(C(F)(F)F)c1	90	34
110	CC1CC(Sc2nnc(-c3cccs3)n2C2CC2)C(=O)O1 (configuration not stated)	12	2
111	COc1cc(C#N)ccc1OC(=O)Cc1coc2ccc3ccccc3c12	14	12
112	Cc1cc(N)ccn1	11	11
113	CCOC(=O)c1cc(-c2ccc(C#N)cc2)nc2c1c(C)nn2CCC#N	14	7
114	COc1cc(C(=O)NS(=O)(=O)c2ccccc2C)ccc1Cc1cn(C)c2ccc(NC(=O)OC3CCCC3)cc12	5	0
115	NS(=O)(=O)c1ccc(NC(=O)CSCc2ccccc2)cc1	9	5

Assay outcomes (PubChem)
